Screens: PubChem, several laboratories
Mtb hypoxia rep – PubChem AID 1159583 | M. tuberculosis hypoxia-regulated fluorescent reporter, fluorescence | fluorescence inhibition, % (test concentration not listed) | actives 0.1% (n = 300,000);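 active means 35 to 45% if threefold the growth effect, above 45% if 1.5-fold the growth effect; inactive means the rest, general growth blockers included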;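 further: wells of about 50 µL received 100 nL stock; 0% = vehicle wells and 100% = reference inhibitor wells; whole bacteria with a GFP reporter of the hypoxia response; strong numbers were not always called active; many hits fall short of the cut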
Bead autofluor – flagged as autofluorescent in microsphere protease counterscreen. compound autofluorescence counterscreen, microsphere flow cytometry; active compounds read high. fluorescence intensity (no concentration beside the values). actives 3.1% (n = 360,000);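 active means at least 3 SD above the mean of all compounds, about 16000 in these data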;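 further: 100 nL of 1 mM stock went into each well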
RN4220 kill – growth inhibition of S. aureus RN4220, primary screen, OD600; inhibition, % (test concentration not listed); actives 0.33% (n = 330,000); 16 h; AID 1259311, 2017;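 active means z-score of -3 or lower and OD600 up to 0.18 on both plates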;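 further: plate controls were untreated cells for no effect and reference antibiotic for full effect; stock transfer was 100 nL into about 80 µL; one replicate is shown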
BJeLR lethal – MLPCN primary cell-based screen for lethality selective to Ras in HRASV12 cells. BJeLR (HRASV12) viability, CellTiter-Glo ATP luminescence, 48 h; reference of the scale not given here. inhibition, % (test concentration not listed). actives 0.17% (n = 300,000). AID 1554, 2009;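 active means replicate mean above 50%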;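 further: 50 nL library stock added to about 25 µL; numbers are from one replicate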
Sa ugtP lethal – growth inhibition of ugtP-null S. aureus, primary screen, RN4220 ugtP deletion, OD600. actives 0.54% (n = 330,000). 16 h; some inactives read as strong as hits. AID 1259309, 2017. growth inhibition, % (test concentration not listed);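 active means z-score under -3 and OD600 up to 0.15 on both plates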;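 further: plate controls were untreated wells for no effect and antibiotic for full effect; wells of about 80 µL received 100 nL stock; the first replicate is given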
PrP UTR inh – inhibition of PrP 5' UTR reporter expression; cell-based PrP 5' UTR mRNA reporter, plate reader; inhibition, % (concentration not given with the values); actives 0.35% (n = 340,000); AID 488862, 2010;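 active means every replicate at 50% or more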;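 further: 0 = median of the neutral control wells; tested in H4 reporter cells; numbers are from one replicate; inactives centre near -14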
Mtb hypoxia rep growth – further read-out of Mtb hypoxia rep, marked with its call; growth inhibition, %; measured here: M. tuberculosis growth (absorbance);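 0% = vehicle and 100% = reference antibiotic; read after six days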
* hit, by the source's call; . = no result given.

SMILES	Mtb hypoxia rep	Mtb hypoxia rep growth	Bead autofluor	RN4220 kill	BJeLR lethal	Sa ugtP lethal	PrP UTR inh
NC(=O)Cn1c(=O)n(CCCC(=O)NC2CCN(Cc3ccccc3)CC2)c(=O)c2ccccc21	.	.	3429	-5.3	-4	-3	-18
Cc1noc(C)c1NC(=O)Nc1cccc2c1O[C@@H](CN(C)C(=O)Nc1ccc3c(c1)OCO3)[C@@H](C)CN([C@H](C)CO)C2=O	1	10	4069	-9.7	.	-5	-27
CCOc1ccc(S(=O)(=O)NCCCn2ccnc2)cc1	-4	5	3413	1.1	-2	3	9
CCn1nnnc1SCC(=O)Nc1ccc(OC)cc1	.	.	3479	-0.1	-4	2	-30
Clc1ccccc1-c1ncc2ccccn12	16	2	4716	35	4	7	-18
Cc1ccc(CNC(=O)c2cn(C)c3ccc(S(=O)(=O)N4CCOCC4)cc3c2=O)cc1	6	16	5352	0.7	11	-1	-27
Cc1ccc(S(=O)(=O)N2CCCCC2)cc1C(=O)Nc1ccc(S(=O)(=O)Nc2ncccn2)cc1	12	12	4204	3.9	1	14	1
O=C(NNC(=O)c1ccc(F)c(S(=O)(=O)N2CCOCC2)c1)c1ccc([N+](=O)[O-])cc1	-14	11	8158	3.0	.	2	4
NS(=O)(=O)c1ccc(CCNC(=O)c2ccc(Cn3c(=O)[nH]c4ccccc4c3=O)cc2)cc1	3	1	4249	0.3	5	4	-15
CCN(CC)S(=O)(=O)c1cc(NC(=O)C2CSC3(C)CCC(=O)N23)ccc1C (stereo unspecified)	-10	3	4074	-4.9	.	-8	-32
O=C(NCCN1CCN(C(=O)c2ccc([N+](=O)[O-])cc2)CC1)C(=O)Nc1ccc(F)cc1	12	8	5208	2.2	2	1	-1
COCCOC(=O)c1[nH]c2c(c1C)C(=O)CC(c1ccccc1)C2 (stereo unspecified)	.	.	4530	1.5	45	-10	-32
O=c1c2ccccc2nc(C[n+]2ccccc2)n1-c1cccc(C(F)(F)F)c1	4	4	2615	1.6	-8	7	-17
CCOc1ccc(NC(=O)C2CCC(CNc3c(N4CCC(C)CC4)c(=O)c3=O)CC2)cc1 (stereo unspecified)	9	-3	4541	6.8	-1	7	-9
COc1ccc(C2CC(=O)C=C(C=Cc3ccc(Cl)cc3)C2)cc1 (stereo unspecified)	7	-4	.	-0.7	.	11	.
CC(=O)c1c(C)n(-c2ccccc2)c2ccc(OCC(N)=O)cc12	17	6	3967	2.3	-2	9	-27
CCNC(=S)Nc1ccc2ncoc2c1	13	10	3528	6.5	-3	4	-12
O=C(CC12CC3CC(CC(C3)C1)C2)Nc1cccc2ncccc12	-18	-6	10574	-0.1	4	-8	-1
CCN(C(=O)C1CCCN1S(=O)(=O)c1ccc2c(c1)n(C)c(=O)c(=O)n2C)c1ccccc1 (stereo unspecified)	.	.	5945	2.1	-6	4	-10
CCOC(=O)CSc1nnc(Cc2ccccc2)n1-c1cccc(Cl)c1	-1	-8	3287	6.8	-1	-4	-15
O=[N+]([O-])c1ccc(C=NNC2=NS(=O)(=O)c3ccccc32)cc1	1	1	.	3.8	.	6	.
O=C(COc1ccc2ccccc2c1)Nc1nnc(-c2ccco2)s1	1	0	.	2.2	-6	3	.
Fc1ccccc1-c1nc(NC2CCCC2)c2ccccc2n1	-7	0	3035	-5.5	6	9	-15
Cc1ccc(S(=O)(=O)NCc2ccccn2)c(C)c1	-3	21	4187	-0.6	-8	-2	-2
O=C1CCC(=O)N1CNc1ccc(Oc2ccccc2)cc1	12	9	10048	5.7	0	0	-12
CC(=O)c1ccc(OCc2cc([N+](=O)[O-])cc3c2OCOC3)cc1	7	8	4609	14	-25	6	-4
CCOC(=O)Nc1ccc(Oc2ccccc2)cc1	7	10	24151*	3.1	-6	26	-41
COc1ccc(Nc2nc3c(C)cccn3c(=O)c2C=NCc2ccccc2)cc1	14	-1	4178	2.6	3	-1	-2
COc1ccc(OCC(=O)NN=C(C)CC(=O)Nc2cccc([N+](=O)[O-])c2)cc1	-7	2	.	0.4	.	-1	.
COc1ccc(C2C3C(=O)N(C(C)(C)C)C(=O)C3[C@]3(Cc4ccc(Cl)cc4)C(=O)N(c4cccc(Br)c4)C(=O)N23)cc1 (stereo partly specified)	6	5	.	7.4	.	5	.

Limited to BJeLR lethal and Mtb hypoxia rep growth (2 entries from above):
| Structure | BJeLR lethal | Mtb hypoxia rep growth |
| --- | --- | --- |
| O=[N+]([O-])c1ccc(C=NNC2=NS(=O)(=O)c3ccccc32)cc1 | . | 1 |
| O=C(COc1ccc2ccccc2c1)Nc1nnc(-c2ccco2)s1 | -6 | 0 |

Continuation.
SMILES	Mtb hypoxia rep	Mtb hypoxia rep growth	Bead autofluor	RN4220 kill	BJeLR lethal	Sa ugtP lethal	PrP UTR inh
COc1cc(OC)cc(-c2nc3nc(C)c(CCC(=O)NCC(OC)OC)c(C)n3n2)c1	2	11	2371	0.7	-10	7	-5
Brc1ccc(CSc2ccc(-c3ccco3)nn2)cc1	11	4	4601	0.9	.	1	-37
C#CCN(C#N)c1nc(NCC)nc(NC(C)C)n1	-8	3	23207*	-1.0	4	-4	6
Brc1ccccc1-c1nnc(CSc2nncn2-c2ccccc2)o1	5	7	4557	2.6	3	-1	-16
CC1CCc2sc3ncnc(N4CCOCC4)c3c2C1 (stereo unspecified)	.	.	2330	-11	-2	-6	-4
CC(=O)C1C(c2ccc(C)cc2)c2c(noc2C)CC1(C)O (stereo unspecified)	15	5	4561	-0.7	-2	9	-10
O=C1c2ccccc2C(=O)N1CCCn1c2ccc(Cl)cc2c2nc3ccccc3nc21	4	20	3785	4.7	.	15	-25
CC(C)OC(=O)CSc1nnc(-c2ccccc2)n1N	13	7	9765	5.4	-5	-9	-34
Cc1nn(-c2nc3ccccc3[nH]2)c(=O)c2ccccc12	1	10	4252	4.5	90*	-3	93*
CC(C)(C)NC(=O)COC(=O)c1ccc(S(=O)(=O)N2CCCC2)cc1	14	2	3298	7.2	5	4	-1
O=C(O)CCN1CCc2ccccc21	4	0	9953	1.2	-12	-5	-27
CC(C)[C@H](NS(=O)(=O)c1ccc2c(c1)OCCO2)C(=O)OCC(=O)Nc1ccccc1Cl	-9	11	2572	2.3	3	-6	-77
CC(C)c1nnc(NC(=O)Cn2nc(-c3ccc4c(c3)OCCO4)ccc2=O)s1	-3	-6	17082*	3.8	1	6	-3
CCCN1CCC(=O)N(C(CSc2ccc(C)cc2)c2ccccc2)CC1 (stereo unspecified)	6	4	.	2.9	.	2	.
C[C@@H](C(=O)Nc1cc(C(F)(F)F)ccc1N1CCOCC1)N1C(=O)C2CC=CCC2C1=O (stereo partly specified)	6	2	3402	8.6	.	2	-11
CN1CCN(S(=O)(=O)c2cccc(C(=O)N(C)CC(=O)Nc3ccc(F)c(F)c3F)c2)CC1	7	-2	6093	7.6	1	4	-22
CCCCc1ncc(CN2CCC(n3nccc3NC(=O)c3ccccc3OC)CC2)[nH]1	-9	-2	5996	3.7	-3	-2	0
O=C(Nc1nnc(S(=O)(=O)N2CCCCCC2)s1)c1ccccc1Cl	3	1	5134	15	2	25	-11
Cc1ccc(C)c(NC(=O)c2ccc(S(=O)(=O)C(F)F)cc2)c1	2	10	2591	0.4	5	13	-24
Cc1cc(C)c(N(C(=O)c2csnn2)C(C(=O)NC(C)(C)C)c2ccncc2)c(C)c1 (stereo unspecified)	-7	-6	4869	7.6	0	3	-7

Overlap with the part before: six compounds, followed by the next part.
SMILES	Mtb hypoxia rep	Mtb hypoxia rep growth	Bead autofluor	RN4220 kill	BJeLR lethal	Sa ugtP lethal	PrP UTR inh
C[C@@H](C(=O)Nc1cc(C(F)(F)F)ccc1N1CCOCC1)N1C(=O)C2CC=CCC2C1=O (stereo partly specified)	6	2	3402	8.6	.	2	-11
CN1CCN(S(=O)(=O)c2cccc(C(=O)N(C)CC(=O)Nc3ccc(F)c(F)c3F)c2)CC1	7	-2	6093	7.6	1	4	-22
CCCCc1ncc(CN2CCC(n3nccc3NC(=O)c3ccccc3OC)CC2)[nH]1	-9	-2	5996	3.7	-3	-2	0
O=C(Nc1nnc(S(=O)(=O)N2CCCCCC2)s1)c1ccccc1Cl	3	1	5134	15	2	25	-11
Cc1ccc(C)c(NC(=O)c2ccc(S(=O)(=O)C(F)F)cc2)c1	2	10	2591	0.4	5	13	-24
Cc1cc(C)c(N(C(=O)c2csnn2)C(C(=O)NC(C)(C)C)c2ccncc2)c(C)c1 (stereo unspecified)	-7	-6	4869	7.6	0	3	-7
COc1ccc(NC(=O)C(C)NS(=O)(=O)c2ccccc2)cc1Cl (stereo unspecified)	16	13	3059	-3.3	-9	0	-20
Cc1ccc(-c2nnn(CC(=O)NCCc3ccc4c(c3)OCO4)n2)cc1	3	-4	4589	2.3	0	-1	-16
COC(=O)C1=C(C)N(c2cccc3ccccc23)C(=O)C1	7	6	7676	1.3	-4	-12	-6
COC(=O)c1ccccc1NC(=O)Cn1nnc(-c2ccc3c(c2)OCO3)n1	11	-3	6073	1.9	-3	-2	-11
N#CCCN(C(=O)COC(=O)Cc1ccc(Br)cc1)c1ccccc1	6	3	4262	4.5	-1	7	28
O=C(/C=C/c1ccccc1)OCC(=O)N1CCN(c2ccccc2)CC1	-10	-1	5410	-2.2	5	2	-35
O=S(=O)(Nc1ccc2c(c1)nc1n2CCOC1)c1ccc(Cl)cc1	3	9	22037*	6.5	3	7	-12
Cc1nnc(SCC(=O)NCc2ccc3c(c2)OCO3)n1C	.	.	4094	.	8	.	-42
C[C@H](CO)N1C[C@H](C)[C@@H](CN(C)S(=O)(=O)c2ccc(F)cc2)Oc2ccc(NC(=O)CCC(F)(F)F)cc2C1=O	-3	5	2914	6.3	.	4	-1
COc1ccc(-n2c(O)c(/C(C)=N/N3CCCCCC3)c(=O)[nH]c2=O)cc1	6	5	3918	2.3	-6	1	.
Cc1ccc(O)c(C(=O)c2cc(C#N)c(=O)n(CC3CCCO3)c2)c1 (stereo unspecified)	1	9	3018	0.9	3	1	1
O=C(c1cccc(-c2ccc(O)cc2)c1)N1CCN(c2ccc(F)cc2)CC1	-2	0	4409	-4.3	1	-2	1
CC(C)NC(=O)C1CC=CCC1C(=O)O (stereo unspecified)	4	6	2554	1.8	-1	0	-20
CN(C)c1ccc(/C=N/NC(=O)c2cnc3ccccc3c2)cc1	.	.	3550	.	4	.	-20
O=C(c1nc2ccccn2c1CNCCCn1cccn1)N1CCCC1	1	15	4289	3.5	-2	3	-32
COc1ccc(OCCn2nnc(-c3ccc(Cl)cc3)n2)cc1	8	-2	2004	3.1	-11	11	-6
CC(=O)CCc1oc2ccc(C)cc2c1Cc1ccccc1	14	-2	3170	0.3	1	28	-2
Cc1ccc(S(=O)(=O)c2nc(S(C)(=O)=O)sc2N(C)C)cc1	21	11	3335	-13	-4	-3	-49
CC(C)c1ccc(NC(=O)NCc2cccnc2)cc1	.	.	5862	.	-2	.	-8
CN(C)c1nc(SCCOC(=O)c2ccccc2)nc(N(C)C)n1	-4	3	10346	5.4	0	4	-28
O=C(COC(=O)c1ccccc1NC(=O)c1ccco1)NC1CCCCC1	.	.	2644	1.4	5	2	-27
S=c1[nH]nc(-c2ccccc2)n1CC1CCCO1 (stereo unspecified)	.	.	2139	6.0	-2	4	-5
COC(=O)c1cc(OC)c(OC)cc1NC(=O)C(C)c1ccc([N+](=O)[O-])cc1 (stereo unspecified)	8	-2	2625	-0.3	-6	-6	-7
Cc1ccc(C=NNC(=O)c2ccc(-n3cccc3)cc2)o1	0	1	.	4.1	.	4	.
CCCc1cc2c(=O)n(NC(=O)c3nn(C)cc3[N+](=O)[O-])c(C)nc2s1	-2	7	2036	53	1	12	-8
COc1ccc(OCCCCN2CCC(C)CC2)cc1	5	1	3009	1.6	-3	8	-22
O=C(Nc1ccnc(-c2ccncc2)n1)c1ccc(F)cc1	14	7	3195	3.5	3	2	-26
CCOC(=O)C1CCCN(c2cc(=O)n(C3CCCCC3)c(=O)[nH]2)C1 (stereo unspecified)	7	2	2269	2.6	-3	-2	-21
COC(=O)c1sc(SC)c(S(=O)(=O)C(C)C)c1N/N=C(\C#N)C(=O)c1ccccc1	.	.	6085	.	1	.	-22
CC1CCCCC1NC(=O)CCNC(=O)N1CC(=O)Nc2ccccc21 (stereo unspecified)	4	1	5844	1.3	10	4	-11
O=C(Nc1ccccc1C(=O)N/N=C/c1ccco1)c1ccccc1	.	.	10665	.	3	.	-24
COCC1CCN(Cc2cn[nH]c2-c2ccc(OC)cc2F)C1 (stereo unspecified)	-3	1	2911	7.5	14	1	-6
O=C(c1ccco1)N1CCN(C(=O)c2cc3c(s2)-c2ccccc2OC3)CC1	7	7	5671	3.9	-3	12	3
